NPR1 antag: antagonists of human natriuretic peptide receptor Npr1. P16066. HEK293 hNpr1 GloSensor cGMP, ANP-stimulated luminescence. Potency, µM (top dose mostly 46.3 µM), inactives show at the highest dose activity change, negative = inhibition, hits mostly inhibitors. hit rate 1.6% among 76,000. AID 1347048; active = well fitted inhibition curve with a large enough effect; inconclusive = small, poorly fitted or top-dose-only effect; inactive = no such curve, though single readings can be large or run the other way;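 also: nearly all actives have a fitted effect of over 60% in size; nearly all hits also lower the signal before the agonist is added; a reference antagonist and vehicle were the controls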
Target sequence (P16066 whole entry, looked up): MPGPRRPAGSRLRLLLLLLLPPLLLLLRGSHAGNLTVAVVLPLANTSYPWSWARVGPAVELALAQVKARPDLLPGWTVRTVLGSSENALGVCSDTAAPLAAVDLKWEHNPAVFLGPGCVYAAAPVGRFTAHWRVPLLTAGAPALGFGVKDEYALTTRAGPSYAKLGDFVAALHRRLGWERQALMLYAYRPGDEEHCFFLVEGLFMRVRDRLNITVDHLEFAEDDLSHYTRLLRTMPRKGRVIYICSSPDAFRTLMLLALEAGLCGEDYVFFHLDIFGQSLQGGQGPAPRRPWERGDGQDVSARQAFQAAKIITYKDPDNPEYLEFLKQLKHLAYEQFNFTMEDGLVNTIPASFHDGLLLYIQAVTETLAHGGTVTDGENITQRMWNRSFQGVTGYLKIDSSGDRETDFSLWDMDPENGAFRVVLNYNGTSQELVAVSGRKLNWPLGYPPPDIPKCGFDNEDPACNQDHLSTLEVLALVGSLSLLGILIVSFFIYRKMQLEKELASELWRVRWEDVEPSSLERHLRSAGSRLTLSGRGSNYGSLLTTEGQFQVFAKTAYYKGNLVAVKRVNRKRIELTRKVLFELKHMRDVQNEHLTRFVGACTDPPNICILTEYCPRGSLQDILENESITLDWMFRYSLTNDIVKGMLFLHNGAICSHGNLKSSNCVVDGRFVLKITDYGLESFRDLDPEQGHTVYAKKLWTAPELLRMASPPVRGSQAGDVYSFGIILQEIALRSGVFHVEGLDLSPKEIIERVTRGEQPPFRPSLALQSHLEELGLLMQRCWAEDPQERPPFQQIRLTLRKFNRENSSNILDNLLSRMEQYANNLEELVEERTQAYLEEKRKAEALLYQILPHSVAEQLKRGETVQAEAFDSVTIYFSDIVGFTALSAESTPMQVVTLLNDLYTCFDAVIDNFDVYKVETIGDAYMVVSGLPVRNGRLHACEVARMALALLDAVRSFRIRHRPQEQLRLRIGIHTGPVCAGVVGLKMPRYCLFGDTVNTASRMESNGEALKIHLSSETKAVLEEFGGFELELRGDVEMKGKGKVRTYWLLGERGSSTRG
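Compound pre-incubated 30 min at room temperature on GloSensor-loaded HEK293 cells stably carrying hNpr1 and the pGS-40F cGMP biosensor. Stimulation uses hNppA at 0.1 nM final; luminescence is taken at baseline and 20 min post-agonist.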
* hit, by the source's call; ? = inconclusive; [ ] = remark or other dose. % is scaled to controls: 0 for no effect and ±100 for the full control effect; potency is read from the fitted curve at half-maximal effect.

The first 4 records as a preview:
Structure	NPR1 antag
CN(C)c1cccc(C(=O)N2CCC(n3cc(-c4nc(C5CC5)no4)nn3)C2)c1 (stereo unspecified)	-18%
COc1ccc(NC(=O)c2ccc3c(c2)C(O)CCCCCN3C)cn1 (stereo unspecified)	-12%
CC(=O)N1C[C@@H]2CCCN3CCC[C@@H]([C@H]23)[C@H]1CCCC(=O)NCCC(C)C	7%
O=C(CCC1CCCN(Cc2cnc(-c3ccccc3)s2)C1)Nc1ccccc1F (stereo unspecified)	?

The listing, repeating the preview:
Structure	NPR1 antag
CN(C)c1cccc(C(=O)N2CCC(n3cc(-c4nc(C5CC5)no4)nn3)C2)c1 (stereo unspecified)	-18%
COc1ccc(NC(=O)c2ccc3c(c2)C(O)CCCCCN3C)cn1 (stereo unspecified)	-12%
CC(=O)N1C[C@@H]2CCCN3CCC[C@@H]([C@H]23)[C@H]1CCCC(=O)NCCC(C)C	7%
O=C(CCC1CCCN(Cc2cnc(-c3ccccc3)s2)C1)Nc1ccccc1F (stereo unspecified)	?
Cc1ccc(-n2nc3n(c2=O)CCN([S+](=O)([O-])c2c(C)noc2C)C3)cc1	1%
O=C1Cc2c(-c3ccc(Oc4ccccc4)cc3)n[nH]c2CN1CCc1ccncc1	-5%[70.6 µM]
COc1ccc(NC(=O)O[C@@H]2CO[C@H]3[C@@H]2OC[C@@H]3Nc2nccc(-c3cccc(F)c3)n2)cc1	-2%
CN1CCN(S(=O)(=O)C2CCS(=O)(=O)C2)CC1 (stereo unspecified)	5%
COCC1CN(C)CC12CCN(Cc1ccc(OC)c(OC)c1Cl)CC2 (stereo unspecified)	0%
Cc1c(C(=O)N[C@@H]2COCC[C@H]2Oc2ccc(C(N)=O)cc2)cnn1C	5%
COc1ccc(NC(=O)c2cnc3n[nH]c(-c4ccc(OC)cc4C)c3n2)cc1	4%[70.6 µM]
O=C(c1ccc(F)cc1)N1CCCC(c2noc(COc3ccccc3)n2)C1 (stereo unspecified)	-6%
CC(C)c1noc(-c2cccn3c(CNC(=O)Cc4ccc(F)cc4)nnc23)n1	-2%
O=c1cc(-c2ccccn2)oc2c(-c3ccc(CO)cc3)nccc12	-12%[70.6 µM]
c1nc(N2CCOCC2)c2c3c(sc2n1)CN(CC1CCCCC1)CC3	-15%
COc1ccc(S(=O)(=O)N2CCCC(Cn3cnc4cccnc43)C2)cc1 (stereo unspecified)	-19%
c1cnc2c(c1)ncn2C1CCCCC1	15%[70.6 µM]
Cc1cccn2c(CN(C)CCc3cnn(C)c3)c(C(=O)N(C)CCc3ccccc3)nc12	-16%
Cc1onc(-c2cnn(C)c2NCc2ccccc2)c1C(=O)N1CCC(c2ccccc2)CC1	1%
Cc1noc2c(N3CCOCC3)cc(-c3cccc(C(F)(F)F)c3)nc12	5%[70.6 µM]
O=C(c1ccccc1OCC1CCCN(C2CCCCC2)C1)N1CCOCC1 (stereo unspecified)	1%
Cc1ncoc1C(=O)NCc1cc(Cl)cc2c(C)c(-c3ccccc3)[nH]c12	2.8µM*
Cc1cc(C)c(S(=O)(=O)NCCn2c(C)cnc2C2CC2)c(C)c1	-29%
CN(C)c1ccc(C(=O)N2CCN3C(=O)c4cc(Br)ccc4NC(=O)[C@H]3C2)cc1	-4%
Fc1ccc(-c2cnc3n2C[C@H](CNC2CCOCC2)OC3)cc1	-3%[70.6 µM]
O=C1CCN(C(=O)CN2CCCCCC2)CCCC(c2nc(-c3ccccc3)no2)CCN1 (stereo unspecified)	3%
O=C1CCCCCN1CC(=O)N1CCCC(OCc2ccccc2)C1 (stereo unspecified)	-3%
CCN(CC)C(=O)C(NC(=O)c1cccc(OC)c1)C1CCN(C(=O)c2ccc3c(c2)OCO3)CC1 (stereo unspecified)	2%
CCCN1C(=O)Cc2cc(C(=O)O)ccc21	-1%
COCc1ccc(CN2CCC(Oc3ccc(C(=O)NC4CCCC4)cc3Cl)CC2)o1	-17%
CCNC(=O)N1CCOc2ccc(CCC(=O)NCCc3ccccc3)cc2C1	2%
CCc1nc2c(NS(=O)(=O)c3cccnc3)cccn2n1	5%
CCn1ccc(C(=O)N2CCCC2c2cc(C)no2)n1 (stereo unspecified)	8%
Cc1nn(-c2ccccn2)c(C)c1[C@@H]1C=C[C@@H](NC(=O)CSCC(=O)O)C1	2%[70.6 µM]
COc1ccc(OC)c(NC(=O)Cn2c(-c3ccc(F)cc3)nc(C)c(CCO)c2=O)c1	-11%
Cc1ccc2nc(C(=O)NCc3nncn3CCc3ccccc3)cn2c1	0%
O=[S+]([O-])(Nc1nncs1)c1ccc2c(c1)OCCN(Cc1ccsc1)C2	-6%[70.6 µM]
CN(C)Cc1cc(CC2(NCc3ccncc3)COC2)no1	2%[70.6 µM]
O=C(NC1CCc2n[nH]c(=O)n2CC1)c1ccc(Cn2ccnc2)o1 (stereo unspecified)	-2%
COc1ccc(C(=O)NCCc2noc(-c3cccnc3)n2)cc1OC	2%
O=C(C1CC1)N1CCN2C(=O)N(Cc3ccc(F)cc3)C[C@H]2C1	-2%[70.6 µM]
Cc1ccccc1-c1nccc2c(=O)cc(-c3ccncc3)oc12	6%[70.6 µM]
COC1C(=O)N(c2cccc(F)c2)C12CCN(S(=O)(=O)c1c(C)nn(C)c1C)CC2 (stereo unspecified)	-3%
O=C(c1ccoc1)N1CCc2nn(Cc3ccccc3)c(=O)n2CC1	1%
CN[C@@H](CO)C(=O)NCc1nc(-c2cccc(F)c2)c(-c2ccccn2)[nH]1	-2%
CC1(c2noc(C3(C)CCOCC3)n2)CCNCC1	-4%
NC(=O)[C@@H]1CCCN1CC[C@H]1CN(C(=O)Nc2ccccc2)CC[C@H]1CC(=O)O	3%[70.6 µM]
CC(=O)Nc1ccc(NC(=O)C2c3ccccc3C(=O)N(C3CCCC3)C23CCCC3)cc1 (stereo unspecified)	1%
COc1ccc(-c2nc(CC3CCNC3)no2)cc1 (stereo unspecified)	7%
COc1cc(-c2ccnc3nc(CC(C)C)nn23)cc(OC)c1OC	0%

Additional compounds
Structure	NPR1 antag
O=C(c1cnn2cccnc12)N(Cc1ccncc1)Cc1cccc(OCCc2ccc(F)cc2)c1	-27%
COc1ccc(-c2noc([C@@H]3CCCN3Cc3ccccc3OC)n2)cn1	-3%[70.6 µM]
O=[S+]([O-])(Nc1cccnc1)c1ccc2c(c1)OCCN(Cc1cncc(F)c1)C2	6%[70.6 µM]
COc1cc(OC)cc(C(=O)N2CCC(c3n[nH]c(=O)n3Cc3ccc(F)cc3)CC2)c1	0%
Cc1noc(-c2cn(C3CCCN(C(=O)c4ccc(Cl)s4)C3)nn2)n1 (stereo unspecified)	-12%
COc1ccc(CNC(=O)Cn2cccc2-c2nc(-c3ccccc3)no2)cc1	0%
CO[C@H](C)[C@H](N)C(=O)N1CCC(c2cc(Cc3ccccc3)[nH]n2)CC1	-1%
COc1ccc(C(=O)N2C[C@@H](COc3ccccc3)[C@H](C(N)=O)C2)cn1	1%
COc1ccc(NC(=O)c2cc(NC(=O)C(C)C)cc3nc(C)ccc23)cc1	-12%
NC(=O)C1CCCN(Cc2ccc(-c3cnc4c(OCc5ccccc5)nccn34)cc2)C1 (stereo unspecified)	-17%
CCC(=O)N1CCCC(c2nc(C(C)C)no2)CCNC(=O)CC1 (stereo unspecified)	8%
CNc1nc(N2CC[C@@H]3C[C@H](N4CCOCC4)CC[C@@]3(COC)C2)ncc1F	5%
COc1ccc(CCN2C(=O)O[C@@H]3CN(c4ncc(C)c(N(C)C)n4)C[C@@H]32)cc1	-3%
COc1ccc(C(=O)N[C@@H]2CN(c3ccccn3)C[C@H]2CN(C)C)c(OC)c1	1%
O=C(Cc1cccc(Cl)c1)N1C[C@@H](CO)[C@H](c2ccncc2)C1	1%
Cc1ccc(C)c(CNC(=O)c2ccc3c(c2)N(S(=O)(=O)c2ccccc2)CC3)c1	2%
Cc1cccc2c1nc1n2[C@@H](CNS(=O)(=O)c2ccc(F)cc2)COC1	?
COc1cc2c(cc1CN1C[C@@H]3CC[C@H](C1)N(CC1CCC1)C3=O)OCCO2	-11%
Cc1ccc(C(=O)NC2CCN(c3cc(-c4cccs4)[nH]n3)CC2)cc1F	-19%
Cc1ccc(C(=O)N2CCC[C@H]2c2nc(-c3ccccc3)no2)c(C)c1	-4%
CN1CCCN(S(=O)(=O)c2ccccc2)CCC(=O)NCC1	-10%
COCc1nc(C2CCN(C(=O)c3cccn3C)C2)no1 (stereo unspecified)	-7%
O=C(c1ccc(F)cc1)N1CCCC(c2nc(C3CCOCC3)no2)C1 (stereo unspecified)	0%
O=C(Cc1ccc(Cl)cc1)NCc1nnc2cc(-c3nc(C4CC4)no3)ccn12	5%
O=S(=O)(C1CC1)N1CCC(c2nc(C3CC3)no2)C1 (stereo unspecified)	2%

Arranged by SMILES length (rising): 3 of the compounds above.
Structure	NPR1 antag
O=C(c1ccc(F)cc1)N1CCCC(c2nc(C3CCOCC3)no2)C1 (stereo unspecified)	0%
COc1ccc(NC(=O)c2cc(NC(=O)C(C)C)cc3nc(C)ccc23)cc1	-12%
Cc1ccc(C)c(CNC(=O)c2ccc3c(c2)N(S(=O)(=O)c2ccccc2)CC3)c1	2%

(list continues)
Structure	NPR1 antag
CCOc1ccccc1C(=O)N1CCC2(CC1)NC(=O)N(c1ccccc1)N2	10%
Cc1noc(-c2nc(-c3cccc(Br)c3)no2)n1	-15%
COc1ccc(/C=C/c2ccc3c(c2)C(=O)N2CC[C@H](NC(=O)c4cnccn4)[C@H]2C(=O)N3)cc1	-1%
CC1=C[C@@H](CN(CC2CC2)CC2CC2)[C@H](C(C)C)C[C@H]1Cc1nc2c(C)cccc2[nH]1	-19%[70.6 µM]
Cn1cc(-c2ccnc(N3CCOCC3)c2)c2nc(COc3ccc(Cl)cc3)cn2c1=O	?
COc1ccc(Cl)cc1S(=O)(=O)N1CCC(OC2CCN(C)CC2)CC1	0%
O=C(NCCc1ccccc1)N(C1CCOCC1)C1CCN(CC2CCCCC2)CC1	4%
CCS(=O)(=O)N1CC(F)(F)C[C@H]1c1nc(C2CC2)no1	1%
COc1ccc(-c2cc(N3CCCN(C(=O)c4ccc(OC)c(F)c4)CC3)n[nH]2)cc1	0%
Cc1cc(C)n(CCC(=O)N2CC(Oc3ccc(-c4nc(-c5ccccc5)no4)cc3)C2)n1	0.4µM*
COc1ccc(C(=O)N2CCc3ccc(C(=O)NCc4ccncc4)cc32)cc1	3%
O=C(NC1CCN(c2cc(-c3ccc(Cl)cc3)[nH]n2)CC1)c1ccncc1	?
Cc1ccccc1-c1nc(N2CCOCC2)cc2c1CN(c1ccccc1)C2=O	-8%[70.6 µM]
CC(=O)N1C[C@@H](CN(C)C)[C@H](NC(=O)c2ccccc2OC(F)(F)F)C1	4%
Cc1nc2ncccc2cc1C(=O)NC(c1nnc2n1CCNCC2)C(C)C (stereo unspecified)	6%
O=C(Cc1c[nH]c2ncc(-c3ccncc3)cc12)NCc1cccnc1	3%[70.6 µM]
CCOC(=O)c1[nH]c(=O)[nH]c1C1CC(=O)Nc2c1cnn2C(CC)CC (stereo unspecified)	3%
Cc1ccc(NS(=O)(=O)c2ccccc2)c(=O)n1CC(=O)N(C)C	-2%
CC(C)NC(=O)N1CCC(O)(c2csc(CN(C)Cc3cccnc3)n2)CC1	1%[70.6 µM]
CCCOc1nccnc1NC1CCN(C(=O)C2CCCO2)CC1 (stereo unspecified)	3%
CCCN1CCC2(CCN(C(=O)c3ccccc3)CC2)Oc2ccccc21	-2%
Cc1cc(CNC(=O)c2ccc(S(=O)(=O)NCC(F)F)cc2)on1	-2%
COc1ccc(NC(=O)CCc2ccc3c(c2)CN(C(=O)NC(C)C)CCO3)cn1	-30%
CCCNc1cc(N2CCC(CCC(=O)N3CCN(c4ccccc4F)CC3)CC2)ncn1	13µM*
Cn1nccc1C(=O)N1CC2CC(C1)[C@H]1CCCC(=O)N1C2 (stereo partly specified)	1%
COc1ccc(C(=O)N2CCCC(CN3CCOCC3)CC2)cc1OC (stereo unspecified)	3%
CN1CCN([C@H]2CCN(CCCc3ccccc3)C[C@H]2CCC(=O)O)CC1	1%
COc1ccc2[nH]c(C(=O)N(CC3CC3)CC3CCCO3)c(C)c2c1 (stereo unspecified)	-2%
CC(C)c1ccc(CC(=O)N2CCCc3ncc(C(=O)Nc4ccn(C)n4)cc32)cc1	-2%[70.6 µM]
CCOc1ccccc1CN1C[C@@H](CO)[C@H](C(=O)N(C)C)C1	4%
O=C(NCCc1ccccc1)C1CCN(c2cn[nH]c(=O)c2)C1 (stereo unspecified)	2%
CN(CC1CCOC1)C(=O)Nc1cccc(Br)c1 (stereo unspecified)	0%

Single values from the list.
NPR1 antag result of `CCOc1ccccc1CN1C[C@@H](CO)[C@H](C(=O)N(C)C)C1` : 4%
NPR1 antag result of `COc1ccc2[nH]c(C(=O)N(CC3CC3)CC3CCCO3)c(C)c2c1` (stereo unspecified) : -2%
NPR1 antag result of `CN(CC1CCOC1)C(=O)Nc1cccc(Br)c1` (stereo unspecified) : 0%
NPR1 antag result of `O=C(NCCc1ccccc1)C1CCN(c2cn[nH]c(=O)c2)C1` (stereo unspecified) : 2%
NPR1 antag result of `CN1CCN([C@H]2CCN(CCCc3ccccc3)C[C@H]2CCC(=O)O)CC1` : 1%
NPR1 antag result of `CC(C)c1ccc(CC(=O)N2CCCc3ncc(C(=O)Nc4ccn(C)n4)cc32)cc1` : -2%[70.6 µM]

Screens deposited in PubChem by National Center for Advancing Translational Sciences (NCATS).

The list is partial. The share of hits here may be higher or lower than overall.
